FEN1 inhibitor: qHTS Assay for the Inhibitors of Human Flap endonuclease 1 (FEN1); P39748; Recombinant FEN1 flap cleavage, fluorescence, 15 min; Potency, µM (doses to about 114 µM), without a hit: top-dose activity change, negative = inhibition, most hits filed as inhibitors; 390,000 tested, 0.35% active; further: nearly all actives have a fitted effect of over 65% in size
Target sequence (P39748 whole entry, looked up): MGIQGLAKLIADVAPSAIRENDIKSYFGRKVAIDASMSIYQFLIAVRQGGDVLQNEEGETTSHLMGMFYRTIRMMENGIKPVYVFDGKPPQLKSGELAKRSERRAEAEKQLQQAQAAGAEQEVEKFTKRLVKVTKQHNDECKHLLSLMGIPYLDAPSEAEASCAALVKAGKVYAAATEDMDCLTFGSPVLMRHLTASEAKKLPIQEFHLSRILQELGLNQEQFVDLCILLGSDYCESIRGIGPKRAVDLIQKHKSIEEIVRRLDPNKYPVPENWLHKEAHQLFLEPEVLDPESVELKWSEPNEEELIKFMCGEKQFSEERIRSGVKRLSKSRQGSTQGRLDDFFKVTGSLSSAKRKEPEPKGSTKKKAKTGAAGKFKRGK
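Enzyme 10 nM, 15 min RT preincubation with compound; start with substrate 50 nM final; reads at 0 and 15 min; qHTS titration, four-parameter Hill fit.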
TDP1 inh: qHTS Assay for Inhibitors of Tyrosyl-DNA Phosphodiesterase (TDP1) | Tyrosyl-DNA phosphodiesterase 1 (Homo sapiens), Q9NUW8 | recombinant TDP1, AlphaScreen DNA substrate cleavage | Potency, µM (titrated, usually from 130 µM), for inactives: top-dose activity change, negative = inhibition, usual class: inhibitors | 350,000 tested, 0.28% active | AID 485290, 2010; further: nearly all actives have a fitted effect of over 40% in size
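Recombinant human Tdp1 (E. coli-expressed, 1 nM final) preincubated with compounds 15 min at room temperature, then 5'-biotin/3'-phosphotyrosine-FITC DNA substrate (15 nM final) added for 5 min. AlphaScreen beads (10 ug/ml final) added 10 min; cleavage lowers signal.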
Active calls of the source: *; . = not tested or not shown; & = joins results of further samples; [ ] = dose if it differs, or a comment. The call rests on the fitted dose curve; in most records, active means well fitted inhibition curve with a large enough effect; inconclusive means small, poorly fitted or top-dose-only effect; inactive means no such curve, though single readings can be large or run the other way. On the % scale 0 is the no-effect control and ±100 the full control effect; potency means the concentration at half of the fitted maximal effect. The list is partial, and most or all hits are left out here.

Results follow in this order: FEN1 inhibitor, TDP1 inh
1	Cc1ccc(SCc2cn3ccccc3n2)cc1
 : 5%, .
2	CCC(C)(C)C1CCC2(CC1)NC(=O)N(CC(=O)NC(C)CCc1ccccc1)C2=O (stereo not drawn)
 : -4%, -7%
3	O=C(Cn1c(=O)cnc2ccccc21)N1CCN(S(=O)(=O)c2cccc([N+](=O)[O-])c2)CC1
 : 0%, .
4	COc1ccc(CCNC(=O)C(=O)NCCOc2ccccc2Cl)cc1OC
 : 2%, -3%
5	CC(CNC(=O)CN1C(=O)NC2(CCCCC2C)C1=O)c1ccccc1 (stereo not drawn)
 : 5%, 10%
6	Cc1ccc(-c2c(NC(=O)C(C)C)n(C)c3ccccc3c2=O)cc1
 : 3%, .
7	CC(=O)N(C)c1ccc(NC(=O)Nc2ccc(C)c(C)c2)cc1
 : 5%, .
8	Cc1cccc(CN2CCN(Cc3cnn(-c4ccccc4F)c3)CC2CCO)n1 (stereo not drawn)
 : 15%, .
9	COC(=O)c1cc(NC(=O)CN(c2cccc(OC)c2)S(=O)(=O)c2ccccc2)ccc1Cl
 : -11%, 3%
10	Cc1nc2cc(NC(=O)COc3ccc(C#N)cc3)ccc2n1-c1ccccc1
 : -12%, 2%
11	O=C(Nc1ccc(N2CCCC2=O)cc1)c1cncc(Br)c1
 : 1%, -7%
12	Cc1ccc(S(=O)(=O)N2CCC(C(N)=O)CC2)c(C)c1C
 : 10%, 0%
13	CSCC(NS(=O)(=O)c1ccc(C)cc1)C(=O)O (stereo not drawn)
 : 0%, 6%
14	CC(C)CCN1CCN(C2CCN(c3ccccc3)CC2)CC1CCO (stereo not drawn)
 : 7%, 3%
15	COc1nsnc1NS(=O)(=O)c1ccc(NC(=S)NC(=O)c2cccnc2)cc1
 : 0%, 0%
16	Cc1cc(NC(=O)C(C)C)ncc1NC(=O)c1ccccn1
 : 0%, 0%
17	O=C(CCC(=O)c1ccccc1)NCc1ccccc1
 : 3%, 6%
18	Cc1ccc(NC(=O)CCc2ccc(C)o2)c(C)c1
 : -7%, 1%
19	Nc1ncc2c(n1)-c1ccoc1CC2
 : -1%, .
20	CC1CCCC(C)N1CC(O)COC1CCC(C(C)(C)C)CC1 (stereo not drawn)
 : 14%, .
21	CCOC(=O)C1CCN(C(=O)c2ccc3c(=O)n4nc(Nc5cc(C)ccc5C)sc4nc3c2)CC1
 : 1%&-5%, 7%&4%
22	Cc1cccc(NC(=O)CCN2C(=O)c3ccccc3C2=O)c1
 : 11%, 2%
23	O=C(c1cccc(S(=O)(=O)N2CCc3ccccc3C2)c1)N1CCN(c2ccccc2)CC1
 : -1%, 0%
24	CC1=C(CC(=O)O)c2cc(F)ccc2C1=Cc1ccc(S(C)(=O)=O)cc1
 : -11%, .
25	Cc1ccc(SCCC(=O)OCn2nnc3ccccc3c2=O)cc1
 : -10%, -1%
26	CS(=O)(=O)N(CC(=O)NCCC1=CCCCC1)C1CCCCC1
 : 7%, 4%
27	COc1cc(/C=N/NC(=O)CCN2CCN(C)CC2)cc2c1OCO2
 : 2%, 3%
28	O=C(OCc1nnc(-c2ccccc2)o1)c1cc(=O)c2ccccc2o1
 : 1%, -2%
29	CCO[C@@H]1OC(C(=O)O)=C[C@H](c2ccc3c(c2)OCO3)[C@H]1CCCO
 : 13%, 6%
30	O=C(CNS(=O)(=O)c1ccc(Cl)cc1)N/N=C/c1ccco1
 : 20%, -5%
31	CCCCC(=O)OCc1cn(-c2ccc(Cl)cc2)nn1
 : -17%, -5%
32	COc1ccc(-c2nc(N)ncc2Oc2ccccc2Br)c(O)c1
 : -9%, 3%
33	CN(N)c1nc(C(F)(F)F)nc2ccccc12
 : -9%, -4%
34	COc1ccc(NC(=O)CSc2nnc3c4c(nc(-c5ccccc5)n23)CC(C)(C)OC4)cc1
 : 0%, 4%
35	CCCc1cc(=O)n2nc(N3CCC(C(=O)Nc4cccc(C(C)=O)c4)CC3)sc2n1
 : 14%, 0%
36	COc1ccc(CN2CCC(c3nc4ccc(Cl)cc4[nH]3)CC2)cc1
 : -12%, 1%
37	CCc1c(C)sc(NC(=O)Cn2nc(C)c([N+](=O)[O-])c2C)c1C(N)=O
 : 10%, -9%
38	CN(C)S(=O)(=O)c1cccc(C(=O)N2CCc3ccccc32)c1
 : -1%, 9%
39	CC(Oc1cccc(Cl)c1)C(=O)Nc1ccccc1N1CCCCC1 (stereo not drawn)
 : -23%, 1%[0.505 µM]
40	CC1=NN(C(=O)Cc2ccccc2)C(O)(c2cccnc2)C1 (stereo not drawn)
 : -2%, 8%
41	Cc1ccc(S(=O)(=O)Nc2ccc3c(c2)nc(CCN2CCN(c4ccccn4)CC2)n3C)cc1
 : -14%, 5%
42	O=C(N/N=C/c1cc2c(cc1Br)OCO2)c1cccnc1
 : -2%, 6%
43	N=c1sccn1CC(=O)Nc1ccc(Cl)c(S(=O)(=O)N2CCOCC2)c1
 : -6%, 5%
44	CCn1c(=O)c(C(=O)NC(C)c2ccccc2)c(O)c2ccccc21 (stereo not drawn)
 : 11%, .
45	O=C(c1sc2cccc(F)c2c1Cl)N1CCN(c2ncccn2)CC1
 : 0%, 5%
46	COc1ccc(OCC(O)Cn2c(N3CCCCC3)nc3c2c(=O)[nH]c(=O)n3C)cc1 (stereo not drawn)
 : -2%, 5%
47	CN(CCCNC(=O)C1CCN(S(=O)(=O)c2cccc3nsnc23)CC1)Cc1ccccc1
 : 3%, 2%
48	CCCCC(CC)CNC(=O)CN(C)S(=O)(=O)c1cccc2nsnc12 (stereo not drawn)
 : -6%, 6%
49	COc1ccc(S(=O)(=O)N(C)C)cc1NCC(=O)Nc1ccc(Br)cc1F
 : 0%, 6%
50	C=CCOc1cccc(C(=O)N2CCCC(Nc3ccc4c(c3)OCCO4)C2)c1 (stereo not drawn)
 : 0%, 10%
51	O=C(Cn1ncc2c(=O)oc3ccccc3c21)N1CCN(C(=O)c2ccco2)CC1
 : 6%, 6%
52	CCOc1ccc(NC(=O)CCN2C(=S)NC(C)(C)CC2C)cc1 (stereo not drawn)
 : 1%, 3%
53	O=C(/C=C/c1cccc(F)c1)NCc1ccc2c(c1)OCO2
 : -3%, 0%
54	COc1ccc(S(=O)(=O)c2c(O)c3ccc(C(=O)Nc4ccccc4F)cc3[nH]c2=O)cc1
 : 3%, 2%
55	COc1ccc(CN2CCC(n3nccc3NC(=O)c3cccc(F)c3)CC2)cc1O
 : 56%[activator], 2%
56	Cc1cccc(-c2noc(-c3c(C)noc3C)n2)c1
 : 0%, -2%
57	COc1ccccc1NC(=S)N1CCOCC1
 : -5%, -3%
58	O=C(CCC(=O)OCC(=O)c1ccccc1)Nc1cccc(Cl)c1
 : -3%, 8%
59	CN1CCN(C(=O)c2ccc3c(c2)S(=O)(=O)c2ccccc2C3=O)CC1
 : 17%, 7%
60	Cc1ccccc1NC(=O)c1ccc(C)c(S(=O)(=O)N2CCN(C)CC2)c1
 : 9%, 2%

(cont.)
Results follow in this order: FEN1 inhibitor, TDP1 inh
61	Cc1ccccc1N1CCN(C2CCCN(C(=O)CCC(=O)N(C)C)C2)CC1 (stereo not drawn)
 : -3%, .
62	CCN(CC)C(=O)CSc1nnc(COc2ccc(OC)cc2)n1N
 : 4%, -6%
63	O=C(Cc1ccccc1)N1CCCC1c1ccccc1 (stereo not drawn)
 : 2%, 7%
64	COc1ccc(CN(C)C(=O)c2ccc3c(=O)n4c(nc3c2)CCC4)c(OC)c1
 : -12%, .
65	COc1ccc(NC(=O)CSc2nnc(Cn3c(=O)sc4ccccc43)n2C)cc1
 : 20%, 3%
66	CCCc1ccccc1OCCNC(=O)c1cc(=O)n(C)c(=O)n1C
 : -1%, 3%
67	CN(CC(=O)NCc1ccccn1)S(=O)(=O)c1ccc2ccccc2c1
 : -1%, 2%
68	COc1ccc(-n2c(Cn3nnc4ccccc43)n[nH]c2=S)cc1
 : -2%, 0%
